Compound activity (PubChem BioAssay)
hNpr1 antagonist: human Npr1 receptor antagonism. P16066. HEK293 hNpr1 GloSensor cGMP, ANP-stimulated luminescence. Potency, µM (titrated, usually from 46.3 µM), inactives show at the top dose activity change, negative = inhibition, usual class: inhibitors. 76,000 compounds, 1.6% hits. AID 1347048; active = well fitted inhibition curve with a large enough effect; inconclusive = small, poorly fitted or top-dose-only effect; inactive = no such curve, though single readings can be large or run the other way;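 further: nearly all actives have a fitted effect of over 60% in size; nearly all hits also lower the signal before the agonist is added; a reference antagonist and vehicle were the controls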
Target sequence (P16066 whole entry, looked up): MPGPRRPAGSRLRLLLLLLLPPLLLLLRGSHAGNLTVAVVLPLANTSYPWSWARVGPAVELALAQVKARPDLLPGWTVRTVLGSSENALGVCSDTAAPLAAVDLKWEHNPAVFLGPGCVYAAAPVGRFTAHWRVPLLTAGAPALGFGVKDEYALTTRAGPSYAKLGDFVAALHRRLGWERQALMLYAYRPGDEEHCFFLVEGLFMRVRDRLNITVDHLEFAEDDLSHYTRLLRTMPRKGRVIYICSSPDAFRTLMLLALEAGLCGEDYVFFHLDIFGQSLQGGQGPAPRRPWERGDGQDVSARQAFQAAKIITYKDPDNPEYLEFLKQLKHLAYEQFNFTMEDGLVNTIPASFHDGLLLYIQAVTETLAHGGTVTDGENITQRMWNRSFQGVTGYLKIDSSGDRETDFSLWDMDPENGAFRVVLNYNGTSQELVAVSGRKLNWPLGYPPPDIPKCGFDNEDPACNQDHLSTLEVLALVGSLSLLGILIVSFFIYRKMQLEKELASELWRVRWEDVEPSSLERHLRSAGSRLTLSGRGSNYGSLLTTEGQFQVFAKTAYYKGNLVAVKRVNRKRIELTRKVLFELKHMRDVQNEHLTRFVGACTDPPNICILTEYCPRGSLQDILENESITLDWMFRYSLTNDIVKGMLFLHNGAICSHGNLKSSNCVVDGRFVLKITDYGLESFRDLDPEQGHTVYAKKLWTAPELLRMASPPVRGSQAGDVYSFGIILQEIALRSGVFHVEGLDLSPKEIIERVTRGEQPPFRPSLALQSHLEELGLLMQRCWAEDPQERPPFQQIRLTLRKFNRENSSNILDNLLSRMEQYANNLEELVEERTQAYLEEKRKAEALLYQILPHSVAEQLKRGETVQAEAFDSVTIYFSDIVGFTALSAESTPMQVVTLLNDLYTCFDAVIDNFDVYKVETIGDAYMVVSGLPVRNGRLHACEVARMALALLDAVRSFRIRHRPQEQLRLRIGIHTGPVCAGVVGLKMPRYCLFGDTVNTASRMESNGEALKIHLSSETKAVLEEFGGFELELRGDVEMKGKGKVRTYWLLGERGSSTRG
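Compound pre-incubated 30 min at room temperature on GloSensor-loaded HEK293 cells stably carrying hNpr1 and the pGS-40F cGMP biosensor. Stimulation uses hNppA at 0.1 nM final; luminescence is taken at baseline and 20 min post-agonist.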
* hit, by the source's call; [ ] = another dose, or the depositor's remark. On the % scale 0 is the no-effect control and ±100 the full control effect; potency means the concentration at half of the fitted maximal effect. These rows are one share of the data; count on the stated rates, not on these rows.

Start of the listing, in advance, 2 compounds:
Screening CN(C)c1nc(-c2ccncc2)nc2c1CCN(C(=O)c1cc(=O)[nH][nH]1)C2 returned hNpr1 antagonist 3.2%.
For O=C1COc2ccc(-c3ccccc3F)nc2CN1Cc1ccccc1 the results were hNpr1 antagonist -19.6%[70.6 µM].

This part in full (from the top)
Screening CN(C)c1nc(-c2ccncc2)nc2c1CCN(C(=O)c1cc(=O)[nH][nH]1)C2 returned hNpr1 antagonist 3.2%.
For O=C1COc2ccc(-c3ccccc3F)nc2CN1Cc1ccccc1 the results were hNpr1 antagonist -19.6%[70.6 µM].
Screening COc1ccc(Cl)cc1C(=O)Nc1cccc(-c2nnc3n2CCCC3)c1 returned hNpr1 antagonist -3.6%.
`CCOc1ccc(CCNC(=O)Cn2ccn3nc(-c4ccccc4)c(CO)c3c2=O)cc1OCC` gave hNpr1 antagonist -4.6%.
For Cc1noc(C)c1S(=O)(=O)N1CCC(c2noc(-c3ccccn3)n2)C1 (stereo unspecified) the results were hNpr1 antagonist 5.1%.
For Cc1cnn(CCC(=O)N2C[C@@H](CO)[C@H](c3ccncc3)C2)c1 the results were hNpr1 antagonist -18.9%.
For COC(=O)[C@@H]1Cc2ncn(Cc3ccc(Cl)cc3)c2CN1C(=O)c1ccc(C(F)(F)F)cc1 the results were hNpr1 antagonist -25.4%.
For COc1cc(C)c2c(c1C)C[C@H]([C@H](C)C(=O)O)CC2 the results were hNpr1 antagonist -7.9%[70.6 µM].
For CCN1CCN(C(=O)C2Cn3cccc3C(=O)N2C)CC1 (stereo unspecified) the results were hNpr1 antagonist 2.6%.
For O=C1c2c(nc(COc3ccc4c(c3)OCO4)n2Cc2ccccc2)NCCN1Cc1ccccc1 the results were hNpr1 antagonist inconclusive.
`CCC1c2nccn2CCCN1C(=O)CCc1ccc(OC)c(OC)c1` (stereo unspecified) gave hNpr1 antagonist -17.2%.
For COc1ccc(C(=O)N2CCc3nc(C(C)C)nc(-c4ccc(OC)cc4)c3CC2)cc1 the results were hNpr1 antagonist 3.4%.
Cc1ccc(CN2CC[C@@H]3[C@H]2C(=O)NC[C@H](CCC(=O)N2CCN(C)CC2)N3C)cc1 was read as hNpr1 antagonist 4.9%[70.6 µM].
Screening CN(Cc1ccc(-c2ccccc2)cc1)Cc1nccs1 returned hNpr1 antagonist 10µM*.
Screening Cc1c(O)cccc1C(=O)N1CCCN(Cc2ccc(F)cc2)C(C(C)C)C1 (stereo unspecified) returned hNpr1 antagonist -2.7%.
`COc1ccc2[nH]c3c(c2c1)CCN(C)C31CCN(C(=O)c2cc(C)[nH]n2)CC1` gave hNpr1 antagonist 0.3%.
Screening C[C@@H]1CN(Cc2cc(C(N)=O)oc2C(C)(C)C)CC[C@@]1(O)C1CCC1 returned hNpr1 antagonist 2.3%.
`Cc1c(O)cccc1C(=O)N1CCC2(CC1)CN(C)CCN2C` gave hNpr1 antagonist 7.4%.
Screening COc1cc(OC)cc(-c2nc(-c3nnn4c3COC(c3ccc(Cl)cc3)C4)no2)c1 (stereo unspecified) returned hNpr1 antagonist 3.9%.
Screening COC[C@@H]1CN(C(=O)c2nccc3ccccc23)C[C@H]1c1nc(C)no1 returned hNpr1 antagonist -0.1%.
For Cc1ccccc1[C@H]1C[C@@H](O)[C@@H](O)[C@@H]1NCC(C)(C)O the results were hNpr1 antagonist -0.8%[70.6 µM].
Screening COCc1nc(C2CC(N)C2)cc(N2CCC(NS(C)(=O)=O)CC2)n1 (stereo unspecified) returned hNpr1 antagonist 7.6%.
For COc1cc2c(cc1CN1CCN(c3ccc(C#N)cc3)C(=O)C1)CCC2 the results were hNpr1 antagonist -5.1%.
Screening COCCn1ncc(N2CCC(C(=O)NCc3cccc(C(F)(F)F)c3)C2)cc1=O (stereo unspecified) returned hNpr1 antagonist 0.8%.
`CS(=O)(=O)N1CCc2ccc(C(=O)Nc3ccc(F)cc3)cc21` gave hNpr1 antagonist inconclusive.
COc1cccc2c1CCN=C2C[C@H]1CN(C(=O)C(C)(C)C)CC[C@H]1CC(=O)O was read as hNpr1 antagonist -2.0%[70.6 µM].
`COCCNC(=O)CCC[C@@H]1[C@H]2CCCN3CCC[C@@H](CN1C)[C@@H]23` gave hNpr1 antagonist -2.0%.
`CCc1noc(-c2cn(C3CCN(C(=O)c4ccc5c(c4)OCO5)CC3)nn2)n1` gave hNpr1 antagonist 0.9%.
`Cc1ccccc1NC(=O)N1CCC(CCNC(=O)c2cccc(F)c2)CC1` gave hNpr1 antagonist 1.2%.
Screening CN1C(=O)[C@H]2CN(Cc3cc(F)cc(F)c3)C[C@H]2C1=O returned hNpr1 antagonist 3.0%.

Random excerpt: five entries already listed, in no set order.
Screening COCCn1ncc(N2CCC(C(=O)NCc3cccc(C(F)(F)F)c3)C2)cc1=O (stereo unspecified) returned hNpr1 antagonist 0.8%.
Screening CN1C(=O)[C@H]2CN(Cc3cc(F)cc(F)c3)C[C@H]2C1=O returned hNpr1 antagonist 3.0%.
`COCCNC(=O)CCC[C@@H]1[C@H]2CCCN3CCC[C@@H](CN1C)[C@@H]23` gave hNpr1 antagonist -2.0%.
`CCc1noc(-c2cn(C3CCN(C(=O)c4ccc5c(c4)OCO5)CC3)nn2)n1` gave hNpr1 antagonist 0.9%.
`Cc1ccccc1NC(=O)N1CCC(CCNC(=O)c2cccc(F)c2)CC1` gave hNpr1 antagonist 1.2%.

Next section.
Screening COCC1(C(=O)N2CCN(C)C3(CCNC(=O)CC3)C2)CC1 (stereo unspecified) returned hNpr1 antagonist -1.7%.
CC(C)CCNC(=O)N1c2ccccc2CC1c1noc(C2CCOCC2)n1 (stereo unspecified) was read as hNpr1 antagonist 3.4%.
For CN(Cc1cccn1C)C(=O)NC1CCCC1 the results were hNpr1 antagonist 2.3%[70.6 µM].
CN1C[C@@H](NC(=O)c2ccccn2)C[C@H]1c1nc(-c2ccc3ccccc3c2)no1 was read as hNpr1 antagonist -3.4%[70.6 µM].
`O=C(CN1C(=O)NC2(CCCCC2)C1=O)NC1CCc2ccccc21` (stereo unspecified) gave hNpr1 antagonist 6.2%.
Screening COc1ccc(NC(=O)c2cnc3c(c2)N(C(=O)Cc2cccc(C(F)(F)F)c2)CCC3)cc1OC returned hNpr1 antagonist 0.1%.
CCOc1ccc(S(=O)(=O)N2CCCN(C(=O)C3CC3)c3ccccc32)cc1 was read as hNpr1 antagonist -1.0%.
COc1cccc(S(=O)(=O)N2CCC3(CC2)CNC(C(=O)O)C3)c1 (stereo unspecified) was read as hNpr1 antagonist -9.3%.
O=C(Nc1ccc([C@@H](O)[C@H]2COCC(=O)N2CCCc2ccccc2)cc1)C1CCC1 was read as hNpr1 antagonist 1.4%[70.6 µM].
Cc1cc(C)n(Cc2ccc(C(=O)N3C[C@@H](Oc4cccnc4)C[C@H]3C(N)=O)o2)n1 was read as hNpr1 antagonist -2.3%.
CCCc1noc(-c2ccn3c(CNC(=O)c4cc(F)ccc4F)nnc3c2)n1 was read as hNpr1 antagonist 3.2%.
For COc1ccc(-c2cc3c(=O)n(CCNC(=O)c4ccc(C)c(F)c4)ccn3n2)cc1 the results were hNpr1 antagonist -16.9%.
For CN1CCN(C(=O)c2nn(C)c3c2CCCC3)CC12CCNC(=O)CC2 (stereo unspecified) the results were hNpr1 antagonist 0.0%.
Screening Cc1cccc([C@H]2C[C@@H](O)[C@@H](O)[C@@H]2NCC(C)(C)O)c1 returned hNpr1 antagonist 4.3%[70.6 µM].
COc1ccccc1NC(=O)N1CCCC(Cn2cnc3cccnc32)C1 (stereo unspecified) was read as hNpr1 antagonist 0.2%.
Screening Cc1cccc(OCC(=O)N2C[C@@H](CO)[C@H](c3ccccn3)C2)c1 returned hNpr1 antagonist -11.9%.
O=C1NCCC[C@@H]1NC(=O)[C@H]1CN(C(=O)NC2CCCCC2)CCN1S(=O)(=O)c1ccc(F)cc1 was read as hNpr1 antagonist 5.2%.
CCCNC(=O)N[C@@H]1C[C@H](Cn2cc(CN(C)C)nn2)[C@@H](O)[C@H]1O was read as hNpr1 antagonist 3.7%[70.6 µM].
CCn1ncc(N2CCC(NC(=O)COc3ccc(F)cc3)CC2)cc1=O was read as hNpr1 antagonist -3.0%.
`CCn1nccc1C(=O)N1CCCC2(C=Cc3ccccc3O2)CC1` (stereo unspecified) gave hNpr1 antagonist inconclusive.
Screening O=C1C(N2CCN(S(=O)(=O)c3ccc(F)cc3F)CC2)CCN1Cc1cccnc1 (stereo unspecified) returned hNpr1 antagonist -25.4%.
Screening O=C(NC1CCCN(c2cc(-c3ccc(F)cc3)[nH]n2)C1)c1ccccc1F (stereo unspecified) returned hNpr1 antagonist -10.6%.
`Cc1cccc(CC(=O)N2CC(C(=O)NCCc3ccncc3)C3(CCOCC3)C2)c1` (stereo unspecified) gave hNpr1 antagonist 8.3%.
Screening Cc1noc(-c2ccn3c(CNC(=O)c4ccc(Cl)cc4)nnc3c2)n1 returned hNpr1 antagonist 10.2%.
Screening CCC(=O)Nc1cccc(C2OC(=O)N(Cc3ccccc3)C2C(=O)Nc2ccc(F)cc2)c1 (stereo unspecified) returned hNpr1 antagonist -0.2%.
COc1ccccc1NC(=O)N1CC2CC(C1)[C@H]1CCCC(=O)N1C2 (stereo partly specified) was read as hNpr1 antagonist 5.6%.
`O=C(c1ccc(Cl)cc1)N1CCCC(c2nn(-c3ccc(F)cc3)c(=O)[nH]2)C1` (stereo unspecified) gave hNpr1 antagonist -12.3%.
Screening CC1(COc2ccccc2)COc2ccc(C(=O)NCc3cnccn3)cc2N1 (stereo unspecified) returned hNpr1 antagonist -1.7%[70.6 µM].
Screening COc1ccc(CN2C(=O)[C@@H]3C[C@@H](O)CN3C3(CN(Cc4cccnc4)C3)C2=O)cc1 returned hNpr1 antagonist -0.4%[70.6 µM].
For CC(=O)Nc1ccc(NC(=O)c2c(C)oc3ccn(Cc4ccc(F)cc4)c(=O)c23)cc1 the results were hNpr1 antagonist -4.4%.
`CC(C)c1ccc(CNC(=O)c2cc3n(n2)CC(c2ccc4c(c2)OCO4)OC3)cc1` (stereo unspecified) gave hNpr1 antagonist -18.7%.
O=C(c1ccccc1F)N1CCCn2cc(-c3ccccc3F)nc21 was read as hNpr1 antagonist -2.0%.
Screening O[C@H]1[C@H](NCc2ccc(F)cc2)[C@H]2CO[C@H](O2)[C@@H]1N1CCC(Cc2ccccc2)CC1 returned hNpr1 antagonist -13.9%[70.6 µM].
Screening CC1=C[C@@H](CN2CCN(CCO)CC2)[C@H](C(C)C)C[C@H]1Cc1nnc(-c2ccc(N(C)C)cc2)o1 returned hNpr1 antagonist 1.1%.
CC1(c2noc(C3CC3)n2)CCN(C(=O)CCc2cc(Cl)no2)CC1 was read as hNpr1 antagonist 11.8%.
Screening Cc1cccc(-c2noc([C@@H]3Cc4nc[nH]c4CN3C(=O)Nc3cccc(C#N)c3)n2)c1 returned hNpr1 antagonist -21.3%[70.6 µM].
For O=c1[nH]c2ccccc2n1C1CCN(c2nccc(-c3cccnc3)n2)CC1 the results were hNpr1 antagonist 11.2µM*.
COc1ccc(-c2cc(N3CCCN(C(=O)c4ccc(C)cc4)CC3)n[nH]2)cc1 was read as hNpr1 antagonist 3.6%.
For CC(=O)Nc1ccc(CN[C@@H]2CO[C@H](CNC(=O)NC(C)C)[C@H]2O)cc1 the results were hNpr1 antagonist 0.5%[70.6 µM].
For O=C(NCCC1CCN(C(=O)Nc2cc(F)ccc2F)CC1)c1cc(F)ccc1F the results were hNpr1 antagonist -16.6%.
Screening O=C(N[C@@H]1CN(C(=O)c2ccc3ncccc3c2)CC[C@@H]1CO)C1CC1 returned hNpr1 antagonist -0.2%.
CC(C)CCC(=O)N1CCC2(CC1)N(c1ccccc1)C(=O)CS2(=O)=O was read as hNpr1 antagonist -2.0%.
`CCN1c2cc(C(=O)Nc3ccc(Br)cc3)ccc2C(=O)N2CCCC21` (stereo unspecified) gave hNpr1 antagonist -2.2%.
CC(=O)NC1(C)CCN(Cc2cccc(Nc3ccccc3)c2)C1 (stereo unspecified) was read as hNpr1 antagonist -6.9%[70.6 µM].
CCNC(=O)N1CCC(CCOc2ccccc2)C1 (stereo unspecified) was read as hNpr1 antagonist 3.7%.
`CC1(c2ccccc2)N(Cc2ccccc2C#N)C(=O)OC12CCN(C(=O)Cc1cccc(F)c1)CC2` (stereo unspecified) gave hNpr1 antagonist -1.9%.
CCc1ccccc1NC(=O)[C@H]1CCC[C@H]1NC(=O)c1ccc(OC)nc1 was read as hNpr1 antagonist 2.6%.
For O=S1(=O)CCN(Cc2cn(C[C@H]3C[C@@H](NCc4ccc(F)cc4)[C@H](O)[C@@H]3O)nn2)CC1 the results were hNpr1 antagonist 6.6%.
CN(C)[C@@H]1CN(C(=O)c2cccn2C)CC[C@@H]1CO was read as hNpr1 antagonist 4.1%.
For COc1cccc(NC(=O)N2CC(c3nnc(-c4ccncc4)o3)C3(CCOCC3)C2)c1 (stereo unspecified) the results were hNpr1 antagonist -7.9%.
Screening CC(Oc1ccccc1)C(=O)N1CCC(n2cc(-c3nc(-c4ccccc4)no3)nn2)CC1 (stereo unspecified) returned hNpr1 antagonist 17.8µM*.
`O=C(O)C1(Oc2ccc3ncccc3c2)CCN(Cc2cccnc2)CC1` gave hNpr1 antagonist -11.1%.
COc1ccc2[nH]c3c(c2c1)CCNC31CCN(C(=O)CC(C)C)CC1 was read as hNpr1 antagonist -1.6%.
Screening Cc1cnn(CC(=O)N2CCc3nn(C)c(=O)n3CC2)c1 returned hNpr1 antagonist -2.5%.
Screening COCCC(=O)NCCC1CCN(C(=O)Nc2cc(F)ccc2F)CC1 returned hNpr1 antagonist -2.3%.
`Cc1cccc(-n2ncc3c2CCCC3NC(=O)C2(C)CCNCC2)c1C` (stereo unspecified) gave hNpr1 antagonist 4.0%.
Screening CCCCc1ncc(-c2c(-c3ccccc3)ncn2CC2(CO)CCC2)[nH]1 returned hNpr1 antagonist -12.4%.
Screening CC(=O)N1CCC(Cc2noc(-c3ccccc3)n2)C1 (stereo unspecified) returned hNpr1 antagonist 4.4%.
